Compound activity from PubChem BioAssay.
H5N1 CPE: MDCK cell protection from H5N1 avian flu. 0.07% of 96,000 active. cytopathic effect, luminescence, 72 h; stronger effect = higher value; no value below 0 was filed and about half of the inactive calls have no number; reference of the scale not given here. inhibition, % at 50 µM. AID 740; in the data active means inhibition above about 25%
The depositor's hits bear a star; i = inactive. Some of the compounds tested. The share of hits here may be higher or lower than overall.

SMILES	H5N1 CPE
Cc1nn(Cc2cccc(C(=O)Nc3ccn(Cc4ccccc4)n3)c2)c(C)c1[N+](=O)[O-]	i
C=CCN(CC=C)S(=O)(=O)c1ccc(NC(=S)NC(=O)/C=C/c2ccc(C)cc2)cc1	0.2
CCOc1cc(N2CCOCC2)c(OCC)cc1NC(=O)Cc1ccccc1OC	i
COc1ccc(N2CCN(C(CNC(=O)C3CCCCC3)c3cccnc3)CC2)cc1 (configuration not stated)	0.4
O=C(Nc1nc(-c2ccc3c(c2)OCO3)cs1)c1ccncc1	0.1
Cc1ccc(C)n1-n1c(C)nc2sc3c(c2c1=O)CCCCC3	2.2
Cc1onc(-c2ccccc2)c1C(=O)Nc1cc(C(F)(F)F)ccc1N1CCOCC1	0.1
O=C(CNC(=O)c1ccccc1)NC1(C(=O)NC2CCCC2)CCCCC1	i
CC1=C(C(N)=O)C(c2ccccc2)n2nc(-c3ccncc3)nc2N1 (configuration not stated)	1.2
COc1ccc(S(=O)(=O)N2CCc3ccccc32)cc1C(=O)OCc1nnc(-c2ccccc2)o1	0.8
CC(=O)Nc1ccc(C#Cc2ccc(NC(C)=O)cc2)cc1	i
CCCc1nnc(NC(=O)CCC(=O)N2CCCCC2CC)s1 (configuration not stated)	0.8
CCOC(=O)Cn1cc(-c2ccccc2)nn1	1.5
CCOC(=O)c1c(NC(=O)CC2SC(N)=NC2=O)sc2c1CCCC2 (configuration not stated)	i
Cc1ccc(-c2nnc(SCC(=O)O)n2N)cc1	i
COCCn1c(COc2ccc(C)cc2)nc2ccccc21	0.7
CCOc1ccc(N(CC(=O)N2CCN(c3ccccc3)CC2)S(=O)(=O)c2c(C)noc2C)cc1	0.8
CCOC(=O)/C(C#N)=C1/SC(CC)C(=O)N1c1ccc(Br)cc1 (configuration not stated)	i
O=C1C(Cl)=C(N2CCOCC2)C(=O)N1c1ccccc1Cl	0.0
O=C(Cn1nnc(-c2ccncc2)n1)N(C1CCCCC1)C1CCCCC1	0.1
CCOC(=O)Cn1nc(/C=C/c2ccc(C(C)C)cc2)ccc1=O	1.0
CC(C)C1Cc2c(C#N)c(N)n(C)c(=S)c2CO1 (configuration not stated)	4.4
Cc1ccnc(N/C=C(/NC(=O)c2ccccc2)C(=O)N/N=C\c2ccc(F)cc2)n1	i
Cn1c(=O)c2c3c(sc2n2cnnc12)CCC3	i
CC(=O)c1ccc(Oc2cc(C)nc(-n3nc(C)cc3C)n2)cc1	0.4

Part of the list above in another layout:
> CCCc1nnc(NC(=O)CCC(=O)N2CCCCC2CC)s1 (configuration not stated)
  H5N1 CPE: 0.8

> CCOC(=O)Cn1cc(-c2ccccc2)nn1
  H5N1 CPE: 1.5

> CCOC(=O)c1c(NC(=O)CC2SC(N)=NC2=O)sc2c1CCCC2 (configuration not stated)
  H5N1 CPE: i

> Cc1ccc(-c2nnc(SCC(=O)O)n2N)cc1
  H5N1 CPE: i

More compounds follow:
SMILES	H5N1 CPE
CC(C)CC(NC(=O)C1CCC(C)CC1)C(=O)NCc1ccccn1 (configuration not stated)	i
O=C1C(N2CCOCC2)=C(n2nnc3ccccc32)C(=O)c2ccccc21	i
Cn1c(SCC(=O)Nc2sccc2C#N)nnc1-c1ccccc1	0.6
O=C(CSc1nnc(-c2ccccc2)c(-c2ccccc2)n1)N1CCOCC1	i
CCOC(=O)C1CCN(c2ncnc3c2[nH]c2cccc(OC)c23)CC1	1.2
CCOC(=O)CCc1c(C)c2ccc(OCC(=O)OC(C)C)cc2oc1=O	1.1
Cc1cc([N+](=O)[O-])ccc1NC(=S)NC(=O)Cc1ccccc1	i
COc1ccc(-n2cnc3sc(-c4ccccc4)cc3c2=O)cc1	i
Cc1cc(C)c2c(N)c(C(=O)NC3CC3)sc2n1	1.3
CCOc1ccc(N(CC(=O)NCCSc2ccccn2)S(C)(=O)=O)cc1	0.5
CCCOC(=O)c1ccc(NC(=O)c2cn(CC)c3nc(C)ccc3c2=O)cc1	i
CCN1CCc2c(sc(N)c2C(N)=O)C1	0.2
COc1cccc(-n2c(SCC(=O)NC3CCCCC3)nc3n[nH]c(C)c3c2=N)c1	i
O=c1ccc(/C=C/c2ccccc2)nn1Cc1ccccc1	i
Fc1ccccc1CNc1ccc(Cl)c(Cl)c1	1.7
COC(=O)c1[nH]c2ccc(C)cc2c1NC(=O)CN1CCC(C)CC1	i
Cc1ccc(C(c2nnnn2Cc2cccs2)N2CCN(C(=O)c3ccco3)CC2)cc1 (configuration not stated)	i
COc1ccc(CNC(=O)C2CCCN(S(=O)(=O)c3cnc[nH]3)C2)cc1 (configuration not stated)	0.1
Cc1cc(/C=N/NC(=O)c2cccc([N+](=O)[O-])c2)c(C)n1-c1ccc(Cl)cc1Cl	5.8
Nn1c(SCC(=O)Nc2ccc3c(c2)OCCO3)nnc1-c1ccccn1	i
CCN1C(=O)C(O)(C2COC(C)(C)CC2=O)c2ccccc21 (configuration not stated)	i
O=C(Cc1ccc(S(=O)(=O)N2CCCC2)s1)Nc1nc2c(s1)CCCC2	4.4
S=c1[nH]nc(COc2ccc(Cl)cc2)o1	i
Cc1ccc(C(=O)c2c[nH]c(C(=O)NCc3cccnc3)c2)cc1	0.0
CCC(C)(C(=O)NC1CCCC1)N(C(=O)c1cnccn1)c1c(C)n(C)n(-c2ccccc2)c1=O (configuration not stated)	i

Exported bar-delimited: entries from further up.
SMILES | H5N1 CPE
O=c1ccc(/C=C/c2ccccc2)nn1Cc1ccccc1 | i
Fc1ccccc1CNc1ccc(Cl)c(Cl)c1 | 1.7
COC(=O)c1[nH]c2ccc(C)cc2c1NC(=O)CN1CCC(C)CC1 | i
Cc1ccc(C(c2nnnn2Cc2cccs2)N2CCN(C(=O)c3ccco3)CC2)cc1 (configuration not stated) | i
COc1ccc(CNC(=O)C2CCCN(S(=O)(=O)c3cnc[nH]3)C2)cc1 (configuration not stated) | 0.1

(listing goes on)
SMILES	H5N1 CPE
COc1cc(C(=O)NCc2ccc(C)cc2)ccc1OCc1c(C)noc1C	0.8
Cc1ccc(-c2csc(NC(=O)c3cccc([N+](=O)[O-])c3)n2)cc1	i
CCn1c(SCC(=O)Nc2cccc(NC(C)=O)c2)nnc1C(C)C	i
O=C(c1ccc2c3c(cccc13)C(=O)N(O)C2=O)N1CCCCC1	7.8
Cc1ccc(NC(=S)N2CCC(c3nc4ccccc4s3)CC2)cc1	i
Cc1cc(C(=O)CSc2nc3ccccc3c(=O)[nH]2)c(C)n1C	1.6
O=C(c1ccco1)N1CCN(C(c2ccccc2F)c2nnnn2Cc2cccs2)CC1 (configuration not stated)	5.5
CCNC(=O)CCCOc1ccc(Cl)cc1Cl	0.3
Cc1cc2oc(=O)c3c(c2cc1OC(=O)c1ccco1)CCCC3	0.1
O=C(NCc1ccc(C(F)(F)F)cc1)C1CC(c2ccccc2[N+](=O)[O-])=NO1 (configuration not stated)	1.5
O=[N+]([O-])c1cccc(-c2nnc3c4ccccc4c4ccccc4n23)c1	i
CC1CC(N(C(=O)C2CC2)c2ccccc2)c2ccccc2N1C(=O)C1CC1 (configuration not stated)	i
CCCc1nnc(NC(=O)CC(=O)OCC)s1	0.3
COC(=O)c1c(C)oc(C)c(C(=O)OC)c1=O	i
CC(=O)NCCn1c(SCC(=O)OCc2ccccc2)nc2ccccc2c1=O	0.9
COc1ccc(-c2cc(NCc3ccccn3)n3ncnc3n2)cc1	4.1
CC(C)Cc1nc2oc3c(N4CCN(C)CC4)ncnc3c2c2c1CCCC2	0.1
CC(C)(C)Oc1ncc(Br)c(OC(C)(C)C)n1	1.7
O=S(=O)(Nc1ccncc1Cl)c1ccccc1	0.4
COc1ccc(-c2cc(C(F)(F)F)nc(N3CCOCC3)n2)cc1	i
CCOc1ccc2nc(SCC(=O)N(C)C)[nH]c2c1	i
Cc1csc2nnc(N)n12	0.5
Cc1cccc(NC(=O)COc2ccccc2)c1	i
CN(c1ccc(C(=O)N2CCc3ccccc3C2)cc1)S(C)(=O)=O	i
CCOP(=O)(OCC)c1nc(-c2cccc3ccccc23)oc1NCc1ccccc1	0.4

(continued)
SMILES	H5N1 CPE
COc1ccc(OC)c(-n2c(-c3cccc(O)c3)n[nH]c2=S)c1	0.6
CCc1c(C)nc2cc(C)[nH]n2c1=O	i
Cc1noc(C)c1S(=O)(=O)N1CCCC(C(=O)NCCC2=CCCCC2)C1 (configuration not stated)	i
CN(C)S(=O)(=O)c1ccc2c(c1)C(CC(=O)O)NC2=O (configuration not stated)	i
Cc1cc(C)cc(-n2c(SCC(=O)NCc3ccco3)nc3ccccc3c2=O)c1	i
COc1ccc(-c2nnc(Sc3nc4ccccc4o3)c3ccccc23)cc1	1.8
COCCN1Cc2cccc(C(=O)Nc3c(C)cc(C)cc3C)c2C1=O	1.4
CC(=O)/C(C[N+]1(C)CCCCC1)=N\O	1.0
O=C(Nc1ccccc1)N(C1=NCCCCS1)c1ccccc1	i
COc1ccc2sc(C)nc2c1NC(C)=O	0.4
C=CCNC(=O)C1CC(c2cccc(OC)c2)=NO1 (configuration not stated)	i
COc1ccc(N2CSC3=C(C#N)C(c4ccc(OC)c(OC)c4)CC(=O)N3C2)c(OC)c1 (configuration not stated)	0.7
COc1ccc(C(=O)CC2C(=O)N(C)C(=O)N(C)C2=O)cc1	1.1
O=C(c1cccnc1)N1CCC(c2nc3ccccc3[nH]2)CC1	0.7
Cn1c(=O)n(C)c2cc(S(=O)(=O)Nc3ccccc3O)ccc21	1.0
COc1ccccc1NC(=O)C(C)NS(=O)(=O)c1ccccc1 (configuration not stated)	i
CCc1cccc(NC(=O)Nc2cccs2)c1	i
Cc1ccc(-c2n[nH]c(=O)c3ccccc23)cc1S(=O)(=O)N(C)CCO	1.6
CCOc1cc(/C=N/NC(=O)Cn2nc([N+](=O)[O-])cc2C)ccc1OCc1ccc(F)cc1	3.3
COc1ccc2c(c1)N(C(=O)CSc1n[nH]c(C)n1)C(C)(C)C=C2C	i
CCC(C)(NC(=O)c1cccc(N2C(=O)CSC2c2ccccc2)c1)C(=O)Nc1ccccc1C (configuration not stated)	i
COc1cccc(NC(=O)CSc2nc3n[nH]c(C)c3c(=N)n2-c2cccc(OC)c2)c1	2.8
CCn1c(SCC(=O)Nc2cc(F)ccc2C)nnc1-c1ccccc1O	0.3
COc1ccc(CNc2ccc(-c3ccc(OC)cc3)nn2)cc1	i
COc1cccc(CNC(=O)CCNS(=O)(=O)c2cccs2)c1	i

5 neighbouring compounds out of the list so far, quoted:
SMILES	H5N1 CPE
COc1ccc(OC)c(-n2c(-c3cccc(O)c3)n[nH]c2=S)c1	0.6
CCc1c(C)nc2cc(C)[nH]n2c1=O	i
Cc1noc(C)c1S(=O)(=O)N1CCCC(C(=O)NCCC2=CCCCC2)C1 (configuration not stated)	i
CN(C)S(=O)(=O)c1ccc2c(c1)C(CC(=O)O)NC2=O (configuration not stated)	i
Cc1cc(C)cc(-n2c(SCC(=O)NCc3ccco3)nc3ccccc3c2=O)c1	i

Further results:
SMILES	H5N1 CPE
CCOC(=O)C1=C(C)N=C2SC(C)C(=O)N2C1c1ccc(OC(C)=O)c(OC)c1 (configuration not stated)	i
CN(C)S(=O)(=O)Oc1cccc(C(=O)Nc2ccc(Cl)c(Cl)c2)c1	7.2
CCC(CC)c1nnc(NC(=O)c2cccc(S(=O)(=O)N3CCc4ccccc43)c2)s1	i
CC(NC(=O)Cn1ccsc1=N)C12CC3CC(CC(C3)C1)C2 (configuration not stated)	i
O=C(c1cccs1)N(Cc1nc2sc3c(c2c(=O)[nH]1)CCCC3)C1CCCC1	i
CCN1C(=O)/C(=C/c2nc3ccccc3c(=O)n2-c2ccccc2)c2ccccc21	1.1
O=c1/c(=C/c2cccc3ccccc23)sc2ncnn12	i
COc1cc(C(=O)N(Cc2ccc(F)cc2)C2CCS(=O)(=O)C2)cc(OC)c1OC (configuration not stated)	0.1
O=C1NC(=O)C(c2ccccc2)(c2ccccc2)N1	i
COc1ccccc1CN1CC(C(=O)NCC2CCCO2)CC1=O (configuration not stated)	i
Cc1ccc(OCCSc2ncnc3nc[nH]c23)cc1	i
O=c1c2ccccc2c(C=NCCO)c(O)n1-c1ccccc1	i
COc1ccc(C2(C(=O)NC(C)C)CCCC2)cc1OC	0.5
O=C(N/N=C/c1cccs1)C1COc2ccccc2O1 (configuration not stated)	i
Cc1nc2nc(-c3ccccc3)[nH]n2c(=O)c1Cc1ccccc1	62*
Cc1sc2ncnc(N3CCOCC3)c2c1C	i
O=C(O)COCc1nc2ccccc2[nH]1	i
O=C(COc1ccccc1)N1CCN(CC2CC3C=CC2C3)CC1 (configuration not stated)	i
O=C(N/N=C\c1ccc(Cl)cc1)c1sccc1-n1cccc1	0.2
Cc1ccccc1CSCCNC(=O)CN(c1ccc2c(c1)OCO2)S(C)(=O)=O	0.6
CCCC(O)(CCN(C)C)c1ccc(OC)cc1 (configuration not stated)	0.6
COc1cccc2cc3c(=O)n(-c4ccccc4)nc-3oc12	i
CCc1nc2ccccc2c(C(=O)OCCN2C(=O)c3ccccc3C2=O)c1C	1.1
O=C(c1cccnc1)N1CCN(Cc2cccc(F)c2)CC1	i
c1cnc(Nc2nc(-c3ccc4ccccc4c3)cs2)nc1	0.6

(list continues)
SMILES	H5N1 CPE
COc1cccc(CNC(=O)C2=C(C)C(=O)OC23CCC(C)CC3)c1 (configuration not stated)	i
O=C(CSc1nc2ccccc2s1)N1CCCCC1	0.2
COc1cc(C)c(Cl)cc1S(=O)(=O)n1cnc2ccccc21	1.1
COc1ccc(C2CC(c3ccc(OC)cc3)n3nc(NC(=O)c4cccs4)nc3N2)cc1 (configuration not stated)	4.5
COc1ccccc1NC(=O)CN(C)S(=O)(=O)c1ccc(F)cc1	i
Cn1cccc1Cc1nnc(SCC(=O)NCC2CCCO2)n1CCc1ccccc1 (configuration not stated)	0.4
COc1ccc(NS(=O)(=O)c2cc(C)ccc2C)cc1	i
CCn1cc(C(=O)NCC2CCCO2)c(=O)c2cc(S(=O)(=O)N(C)C)ccc21 (configuration not stated)	i
